Mtb growth = M. tuberculosis H37Rv growth inhibitors, H37Rv strain (AID 1626) | M. tuberculosis H37Rv growth inhibition; higher % means a stronger effect | inhibition, % at 10 µM; hits with a dose series show IC50 in µM | hit rate 0.95% among 220,000;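 active means confirmed in a dose series; inconclusive means inhibition above 80% but not taken into the dose series; inactive means below 80% or under 30% at every dose of the series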;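 further: bacteria incubated seven days before Alamar blue readout; 0% = bacteria only wells and 100% = bacteria with antibiotic wells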
RecA intein inh = inhibitors of M. tuberculosis RecA intein splicing | cell-free RecA intein splicing, fluorescence | inhibition, %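 (about 9 µM by stock and volumes)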 | hit rate 0.75% among 290,000; in the data active means inhibition above about 30%; inconclusive means no clear call, values can overlap the other calls;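 further: 0% = vehicle wells and 100% = reference inhibitor control wells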
Target sequence (P9WHJ3 whole entry, looked up): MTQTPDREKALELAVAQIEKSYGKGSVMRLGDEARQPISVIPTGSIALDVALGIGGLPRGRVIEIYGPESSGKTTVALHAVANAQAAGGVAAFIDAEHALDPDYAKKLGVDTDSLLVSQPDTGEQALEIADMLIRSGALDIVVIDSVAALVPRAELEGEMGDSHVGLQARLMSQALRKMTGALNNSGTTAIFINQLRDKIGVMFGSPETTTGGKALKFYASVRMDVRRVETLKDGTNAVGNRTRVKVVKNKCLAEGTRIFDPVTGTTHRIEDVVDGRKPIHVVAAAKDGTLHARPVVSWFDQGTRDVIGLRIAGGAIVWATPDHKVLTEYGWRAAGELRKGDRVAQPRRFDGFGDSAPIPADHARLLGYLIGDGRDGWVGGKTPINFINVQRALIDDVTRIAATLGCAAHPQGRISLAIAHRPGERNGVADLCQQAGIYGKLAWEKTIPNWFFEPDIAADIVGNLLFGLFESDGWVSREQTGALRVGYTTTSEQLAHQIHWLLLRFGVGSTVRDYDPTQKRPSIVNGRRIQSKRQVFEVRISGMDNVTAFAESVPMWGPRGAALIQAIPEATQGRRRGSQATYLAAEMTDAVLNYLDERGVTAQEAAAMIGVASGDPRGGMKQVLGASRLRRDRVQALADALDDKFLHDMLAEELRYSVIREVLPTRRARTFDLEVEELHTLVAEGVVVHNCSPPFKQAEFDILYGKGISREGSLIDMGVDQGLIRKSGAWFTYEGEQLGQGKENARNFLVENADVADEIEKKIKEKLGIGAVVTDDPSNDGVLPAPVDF
Arbovirus anti = arbovirus infection inhibition. arbovirus infection cell-based antiviral screen. inhibition, % at 10 µM. hit rate 0.37% among 200,000;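 active means inhibition from about 30%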;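 further: bluetongue infection of BSR cells; cell survival read as ATP light after 72 h; 0% = infected wells without compound and 100% = uninfected wells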
YopH inh = YopH (Yersinia) phosphatase inhibition; AID 898; hit rate 0.16% among 140,000; fluorescence Ex485/Em525; inhibition, %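 (about 10 µM by stock and volumes)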;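 active means inhibition of 50% or more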;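 further: controls were vehicle for no effect and minimum signal wells for full effect; inactives centre near -20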
Mtb betalactam = beta-lactam sensitization of Mtb H37Rv | M. tuberculosis H37Rv growth with meropenem, percent inhibition; hits of this screen are not shown here | inhibition, % at 25 µM | hit rate 0.27% among 330,000;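 active means about 74% or more and at least 40 points above the plate without the antibiotic, then above 30% in a dose series; inconclusive means first-round hits that could not be retested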;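 further: growth measured after seven days incubation then overnight dye step; 0% = bacteria only wells and 100% = bacteria with antibiotic; twin plates without the antibiotic show which effects depend on it; some results filed as inactive read as strong as hits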
Arbovirus anti repeat = recorded beside Arbovirus anti, whose call it bears; inhibition, %; measured here: 10K subset replicate screen; many hits read low in the repeat;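 first of two repeat runs on a subset; 0% = infected and 100% = uninfected wells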
Numbers without * were called inactive; u = inconclusive; x = not tested or not shown.

SMILES | Mtb growth | RecA intein inh | Arbovirus anti | YopH inh | Mtb betalactam | others
CCOC(=O)C(C)(C)C(=O)C(C)(C)C(O)c1ccccn1 (configuration not stated) | 2% | 0.4 | 9 | -48 | 1
COc1cc(CNCc2ccco2)ccc1OCc1ccccc1 | -11% | 7.8 | 13 | -49 | -6
Cc1ccccc1C(=O)N1CCC(n2nccc2NC(=O)CCOc2ccccc2)CC1 | x | -0.8 | x | x | -6
COc1ccc(C(=O)N/N=C\c2ccc(OC)c(COc3ccccc3Br)c2)c(OC)c1 | x | 5.3 | x | x | 1
COc1cc(C2C3=C(CC(C)(C)CC3=O)N(C)C3=C2C(=O)CC(C)(C)C3)ccc1O | x | -16 | x | x | 4
CC1=Nc2ccccc2N=C(NC(=O)CSC(=S)N2CCN(C)CC2)C1c1ccccc1 (configuration not stated) | -8% | -0.6 | x | x | -8
CC(=O)N(c1ccccc1)c1ccc([N+](=O)[O-])cc1[N+](=O)[O-] | 6% | 2.7 | -15 | -17 | 29
CC(OC(=O)c1nsc(Cl)c1Cl)C(=O)NCc1ccc2c(c1)OCO2 (configuration not stated) | -1% | 0.5 | 7 | -29 | 13
Cc1c(NC(=O)C(C)C)cccc1-c1nc2ncccc2o1 | x | -1.4 | x | x | 3
O=C(O)c1ccc(-n2cc(C(=O)c3ccccc3O)cn2)cc1 | x | 4.4 | x | x | 8
CC(C)N(C(=O)CSc1nc2ccccc2n1Cc1ccccc1F)C(C)C | 5% | -1.5 | -3 | -26 | -1
NS(=O)(=O)c1ccc(CCNC(=O)CC(NC(=O)c2ccccc2Cl)c2ccccc2)cc1 (configuration not stated) | -2% | 0.7 | x | x | -6
COc1cccc(N2CCN(CC(=O)C34CC5CC(CC(C5)C3)C4)CC2)c1 | -1% | -4.4 | -4 | 13 | -8
O=C(COc1ccc(Br)cc1CNCCc1ccccc1)NCc1ccccc1 | u | 5.9 | -24 | x | 93
O=C(CSc1nnnn1-c1cccnc1)Nc1ccccc1F | x | 0.8 | x | x | 1
O=C(CS(=O)(=O)c1ccccc1)Nc1ccc(Br)cn1 | 3% | -6.7 | 2 | 4 | -8
COc1ccc2c(c1)[nH]c1c(=O)n(/N=C/c3ccc(OC)c(COc4ccccn4)c3)cnc12 | 1% | 1.2 | 17 | -28 | -10
CCOc1ccc(S(=O)(=O)NCc2ccc3c(c2)OCO3)cc1C | x | -4.3 | x | x | -7
O=C(/C=C/c1ccccc1)NNC(=O)c1cccs1 | 0% | -7.0 | 1 | x | 1
Cc1cc(C(=O)N/N=C/c2cccc([N+](=O)[O-])c2)c2ccccc2n1 | -4% | -0.2 | 0 | 5 | 6
Cc1cc(C)n(C(=O)CCCn2cc([N+](=O)[O-])cn2)n1 | -5% | -2.6 | 4 | x | -7
CC(=O)N1CCC(C(=O)NCCOc2ccc(C)cc2)CC1 | x | -0.5 | x | x | 2
Cc1cccc(NC(=O)NC(C)CCc2ccccc2)c1 (configuration not stated) | 11% | 5.1 | 10 | -11 | 5
Cc1ccc(C(=O)N2CCc3ccccc32)cc1 | -1% | -0.6 | 3 | -29 | 9
CC(Oc1ccc(Br)cc1)C(=O)NCc1ccccn1 (configuration not stated) | 1% | 1.0 | 11 | x | -4
O=[N+]([O-])/C(C(Cl)=C(Cl)Cl)=C(\Sc1ccccc1)N1CCCCC1 | -7% | 20 | -19 | x | -4
Cc1ccc(C)n1C(Cc1ccccc1)C(=O)O (configuration not stated) | -6% | 4.8 | 1 | -27 | x
Cc1c(C=O)c2ccccc2n1CC(=O)NC(C)c1ccccc1 (configuration not stated) | -1% | 0.8 | 5 | x | -4
CSc1ccc(NC(=O)Nc2ccc(C(=O)NCC(=O)O)cc2)cc1 | 3% | 0.1 | x | x | -1
Cc1c(N2C(=O)SC(CC(=O)O)C2=O)c(=O)n(-c2ccccc2)n1C (configuration not stated) | -10% | x | 7 | -50 | -9
O=C(Nc1cc(S(=O)(=O)N2CCOCC2)ccc1N1CCCC1)C1CC1 | -10% | -2.7 | -2 | x | -4
Cc1cccc(-n2c(N)cc(=O)nc2SCC(=O)Nc2ccccc2)c1 | 0% | -0.1 | 9 | -7 | 13
CS(=O)(=O)N(CC(=O)Nc1cccc(Cl)c1Cl)c1ccccc1 | -1% | 1.6 | 5 | -27 | -9
COc1ccc(-n2c(COc3ccc(Cl)cc3)nnc2SCc2ccc(C#N)cc2)cc1 | 5% | 7.7 | -13 | -10 | -9
Cc1ccc(-c2csc(NC(=O)c3ccc(S(=O)(=O)N4CCc5ccccc54)cc3)n2)cc1 | x | 0.8 | 17 | -29 | -5
CCOC(=O)c1cnc2ncnn2c1N | -1% | -0.3 | 6 | x | 2
COc1cccc(NC(=O)CN2CCN(CC(=O)Nc3ccccc3Cl)CC2)c1 | x | -3.4 | x | x | -3
O=C(Nc1nonc1-c1ccc(F)cc1)c1ccco1 | x | -1.5 | x | x | 2
CCCOc1ccc(CCC(=O)O)cc1 | 0% | 1.9 | -2 | x | -8
O=C(NC1CCCCC1)C(c1ccccn1)N(C(=O)c1csnn1)c1ccccc1 (configuration not stated) | x | 0.3 | x | x | -5
O=C(CCCN1C(=O)/C(=C/c2cccs2)SC1=S)Nc1ccc(C(=O)O)cc1 | -2% | 17 | 22 | x | 4
COc1ccc(Cc2nnc(NC(=O)c3cc(OC)c(OC)c(OC)c3)s2)cc1OC | 0% | 0.4 | -14 | x | -6
CCCCNC(=O)N1CCN(c2ccnc3cc(Cl)ccc23)CC1 | x | 0.3 | x | x | 0
Cn1cc(/C=C2\C(=O)NC(=O)N(c3ccccc3)C2=O)c2ccccc21 | x | -3.0 | x | x | 98
COCCNC(=O)COc1ccccc1C | 5% | 0.2 | 0 | -8 | -5
C=CCOCCN(CCOCC=C)C1=NS(=O)(=O)c2ccccc21 | -7% | 4.4 | 2 | x | 1
O=C(CSc1ccc2nnc(-c3ccccn3)n2n1)N1CCOCC1 | 7% | 0.4 | 6 | -45 | 5
NC(=O)Cc1nc(-c2ccc(Br)cc2)cs1 | 5% | 2.7 | -10 | -21 | 42
O=C(c1ccccn1)N1CCN(c2cccc(C(F)(F)F)c2)CC1 | 0% | 2.4 | 2 | x | 3
O=C(COC(=O)C1=COCCO1)NC(=O)c1ccc(OC(F)F)cc1 | -3% | -3.6 | -3 | x | -2
O=C(Cn1c(-c2cscn2)nc2ccccc21)Nc1ccccc1F | -4% | -0.2 | 0 | -31 | -3
CN(CC(=O)N1CCCCC1)S(=O)(=O)c1cccc2cccnc12 | -6% | -1.3 | 9 | -37 | 10 | Arbovirus anti repeat=0
O=C1OCCC1Sc1ncnc2sccc12 (configuration not stated) | -2% | 3.0 | 2 | -14 | 3
CC1CCCCN1C(=O)CCNS(=O)(=O)c1ccc2c(c1)c(=O)n(C)c(=O)n2C (configuration not stated) | x | 1.4 | x | x | 5
CN(C)/N=C/c1cc([N+](=O)[O-])ccc1O | 5% | -1.2 | 4 | x | 9
Cc1cccc(N(C(=O)c2snc(C(N)=O)c2N)C(C)C(=O)NCC2CCCO2)c1 (configuration not stated) | 7% | -0.5 | 10 | x | -6
N=C1N(/N=C/c2ccccc2)C(=Nc2ccccc2)C(=S)N1c1ccccc1 | 3% | -2.9 | 4 | 0 | 2
COc1ccccc1NC(=O)c1cc2c(CO)cnc(C)c2oc1=Nc1cccc(C(N)=O)c1 | x | 0.4 | x | x | -2
COc1ccccc1NC(=O)C(NC(=O)c1ccc(C)cc1)c1ccccc1 (configuration not stated) | x | -0.6 | x | x | 9
O=C(O)c1cc2c(s1)-c1ccccc1CC2 | 1% | 0.0 | 1 | -30 | 6

The list goes on, overlapping the part above by 2 compounds.
SMILES | Mtb growth | RecA intein inh | Arbovirus anti | YopH inh | Mtb betalactam | others
COc1ccccc1NC(=O)C(NC(=O)c1ccc(C)cc1)c1ccccc1 (configuration not stated) | x | -0.6 | x | x | 9
O=C(O)c1cc2c(s1)-c1ccccc1CC2 | 1% | 0.0 | 1 | -30 | 6
O=C(CN1CCN(S(=O)(=O)c2ccccc2)CC1)Nc1ccc2c(c1)OCO2 | -8% | 1.6 | -6 | -23 | -13
COc1ccccc1NC(=O)COC(=O)C1CCN(/C=C/C(=O)C(F)(F)F)CC1 | 0% | -17 | 8 | -27 | 3
CCSc1cc(N2CCCC2)nc(-c2ccc(C)cc2)n1 | 3% | 0.2 | 5 | -15 | -1
O=c1c2cc(Br)ccc2[nH]c(=S)n1Cc1ccccn1 | 4% | 3.6 | -3 | -2 | -1
O=C(NNC(=O)c1nc(Cl)ccc1Cl)c1ccc(F)cc1 | x | 1.2 | x | x | -3
COc1ccc(C2CC(=O)Nc3n[nH]c(-c4ccccc4)c32)cc1OC (configuration not stated) | -6% | -3.5 | -1 | x | -7
CCSc1nnc(NC(=O)C(NC(=O)c2ccc(Cl)cc2)C(C)C)s1 (configuration not stated) | -5% | 4.2 | 21 | -29 | -2
O=C1NC(=O)C2=Cc3ccc(O)cc3OC2(O)N1 (configuration not stated) | 0% | x | 1 | x | x
COCCCC1CCN(C(=O)c2cc(COc3ccc(C)nc3)on2)CC1 | x | 1.3 | x | x | 3
COc1cccc(NC(=O)c2cnc(SC)nc2C)c1 | x | -1.5 | x | x | 86
Cc1cc(Cl)c(OCCCNC2CCCC2)c(Br)c1 | x | 2.1 | x | x | -4
O=C(Nc1nnc(SCc2ccc(F)cc2)s1)c1ccc2c(c1)C(=O)N(c1ccccc1Cl)C2=O | -7% | 0.6 | 44* | x | -1
CC(=O)NC1=NN(C(C)=O)C(c2sccc2C)S1 (configuration not stated) | 2% | 0.3 | -13 | 0 | -12
CC1=C(C(=O)OCC2CCCO2)C(c2ccccc2)C2=C(CC(C)(C)CC2=O)N1 (configuration not stated) | 3% | -38 | -11 | x | -1
O=C1CCCCCCCCCC/C(=N\O)CCCO1 | x | 2.0 | x | x | -8
CC1CCN(C(=O)c2ccc(NC(=O)CC3SC(N4CCCC4)=NC3=O)cc2)CC1 (configuration not stated) | x | 1.9 | x | x | -3

Quoted from the listing, 17 compounds:
SMILES | Mtb growth | RecA intein inh | Arbovirus anti | YopH inh | Mtb betalactam | others
O=C(O)c1cc2c(s1)-c1ccccc1CC2 | 1% | 0.0 | 1 | -30 | 6
O=C(CN1CCN(S(=O)(=O)c2ccccc2)CC1)Nc1ccc2c(c1)OCO2 | -8% | 1.6 | -6 | -23 | -13
COc1ccccc1NC(=O)COC(=O)C1CCN(/C=C/C(=O)C(F)(F)F)CC1 | 0% | -17 | 8 | -27 | 3
CCSc1cc(N2CCCC2)nc(-c2ccc(C)cc2)n1 | 3% | 0.2 | 5 | -15 | -1
O=c1c2cc(Br)ccc2[nH]c(=S)n1Cc1ccccn1 | 4% | 3.6 | -3 | -2 | -1
O=C(NNC(=O)c1nc(Cl)ccc1Cl)c1ccc(F)cc1 | x | 1.2 | x | x | -3
COc1ccc(C2CC(=O)Nc3n[nH]c(-c4ccccc4)c32)cc1OC (configuration not stated) | -6% | -3.5 | -1 | x | -7
CCSc1nnc(NC(=O)C(NC(=O)c2ccc(Cl)cc2)C(C)C)s1 (configuration not stated) | -5% | 4.2 | 21 | -29 | -2
O=C1NC(=O)C2=Cc3ccc(O)cc3OC2(O)N1 (configuration not stated) | 0% | x | 1 | x | x
COCCCC1CCN(C(=O)c2cc(COc3ccc(C)nc3)on2)CC1 | x | 1.3 | x | x | 3
COc1cccc(NC(=O)c2cnc(SC)nc2C)c1 | x | -1.5 | x | x | 86
Cc1cc(Cl)c(OCCCNC2CCCC2)c(Br)c1 | x | 2.1 | x | x | -4
O=C(Nc1nnc(SCc2ccc(F)cc2)s1)c1ccc2c(c1)C(=O)N(c1ccccc1Cl)C2=O | -7% | 0.6 | 44* | x | -1
CC(=O)NC1=NN(C(C)=O)C(c2sccc2C)S1 (configuration not stated) | 2% | 0.3 | -13 | 0 | -12
CC1=C(C(=O)OCC2CCCO2)C(c2ccccc2)C2=C(CC(C)(C)CC2=O)N1 (configuration not stated) | 3% | -38 | -11 | x | -1
O=C1CCCCCCCCCC/C(=N\O)CCCO1 | x | 2.0 | x | x | -8
CC1CCN(C(=O)c2ccc(NC(=O)CC3SC(N4CCCC4)=NC3=O)cc2)CC1 (configuration not stated) | x | 1.9 | x | x | -3

Assay outcomes deposited in PubChem BioAssay by several laboratories.

Only part of the results is shown; count on the stated rates, not on these rows.
